# VDR inh: inhibitors of human vitamin D receptor; AID 504847; VDR-SRC2-3 peptide fluorescence polarization, 2 h; Potency, µM, inactives show max response, negative = inhibition, actives largely listed as inhibitors; P11473; hit rate 0.93% among 400,000; active = well fitted inhibition curve with a large enough effect; inconclusive = small, poorly fitted or top-dose-only effect, or another doubt; inactive = no such curve, though single readings can be large or run the other way; note: series mostly up to about 120 µM
# Target sequence (P11473 whole entry, looked up): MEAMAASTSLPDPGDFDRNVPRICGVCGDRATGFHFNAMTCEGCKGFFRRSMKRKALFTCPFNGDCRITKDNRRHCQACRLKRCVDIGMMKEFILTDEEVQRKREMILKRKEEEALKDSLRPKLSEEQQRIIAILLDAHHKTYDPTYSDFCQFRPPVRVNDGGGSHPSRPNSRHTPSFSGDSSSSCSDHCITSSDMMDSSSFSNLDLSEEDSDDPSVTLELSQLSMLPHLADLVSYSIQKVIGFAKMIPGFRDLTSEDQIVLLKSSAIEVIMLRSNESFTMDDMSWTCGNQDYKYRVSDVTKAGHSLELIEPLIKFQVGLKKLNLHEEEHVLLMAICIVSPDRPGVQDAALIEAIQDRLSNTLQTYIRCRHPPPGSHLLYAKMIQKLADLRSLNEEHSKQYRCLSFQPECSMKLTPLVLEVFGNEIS
#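 Fluorescence polarization assay of small-molecule disruption of VDR binding to coregulator peptide SRC2-3. Compounds and controls pin-transferred, then read after 2 h incubation at ambient room temperature.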
# * marks the source's active call; other numbers are inactive results; ? = inconclusive; [ ] = remark or other dose. % is set by controls: 0 for no effect and ±100 for the full control effect; potency is the fitted concentration of half-maximal effect. These rows are one share of the data; count on the stated rates, not on these rows.
structure	VDR inh
Cc1ccc(NC(=O)/C(C#N)=C\c2ccc(-c3ccc(Cl)cc3)o2)c(C)c1	-9.8%
Nn1c(SCC(=O)NCCN2C(=O)CSC2=O)nnc1-c1ccc(OC(F)F)cc1	6.9%
CC1CCC/C(=C(\C#N)c2nc(-c3cc4ccccc4oc3=O)cs2)C1 (centres undefined)	-19.4%
CCOC(=O)/C=C1/SCC(=O)N1Cc1ccc(Br)cc1	9.6%
CCOC(=O)N1CCC(Nc2ncnc3c2cnn3-c2ccc(C)cc2C)CC1	9.4%
CCCCC(CC)Cn1c(N)c(C#N)c2nc3ccccc3nc21 (centres undefined)	2.4%
CCCC(C)Sc1nc2c([nH]1)c(=S)n(C)c(=O)n2C (centres undefined)	-2.5%
O=S(=O)(NC1CC1)c1ccc(Cl)cc1F	15.1%
Cn1c(NC(=O)c2ccc(Cl)s2)cc(=O)n(C)c1=O	-13.2%
COC(=O)c1ccccc1N1C(=O)C2C(C1=O)C1C=CC2C12CC2 (centres undefined)	0.4%

# Following part
structure	VDR inh
Cc1ccc(C(=O)N/C(=C/c2cccnc2)C(=O)O)cc1	6.9%
NS(=O)(=O)c1ccc(N=Nc2c(O)[nH]c3ccc(Br)cc23)cc1	-5.6%
CC1(c2nnc(Cc3ccccc3)o2)CC(c2cccc(F)c2)=NO1 (centres undefined)	-5.5%
CCOc1ccc(NC(=O)C(C)C(Cc2ccc(C)cc2)C(=O)O)cc1 (centres undefined)	-2.2%
O=C(c1cc2sccc2n1Cc1ccc(F)cc1)N1CCN(c2nc3ccccc3s2)CC1	8.0%
CCn1c(C)cc(/C=C2\NC(=O)N(CC(=O)Nc3cccc(C)c3)C2=O)c1C	-20.8%
O=C(NCCc1ccccc1)C(=O)NCC(c1ccc2c(c1)OCO2)N1CCOCC1 (centres undefined)	4.9%
O=C(CCN1CCC2CCC(C2)C1)c1ccccc1 (centres undefined)	70.8µM*
CCOC(=O)C1=C(C)NC(=O)C(C#N)C1c1ccncc1 (centres undefined)	0.8%
Cc1ccccc1CSc1nnc2[nH]c(=O)cc(C)n12	12.0%

# 6 entries picked at random from those above:
structure	VDR inh
CCn1c(C)cc(/C=C2\NC(=O)N(CC(=O)Nc3cccc(C)c3)C2=O)c1C	-20.8%
CCOC(=O)C1=C(C)NC(=O)C(C#N)C1c1ccncc1 (centres undefined)	0.8%
CC1(c2nnc(Cc3ccccc3)o2)CC(c2cccc(F)c2)=NO1 (centres undefined)	-5.5%
CCOc1ccc(NC(=O)C(C)C(Cc2ccc(C)cc2)C(=O)O)cc1 (centres undefined)	-2.2%
Cc1ccccc1CSc1nnc2[nH]c(=O)cc(C)n12	12.0%
NS(=O)(=O)c1ccc(N=Nc2c(O)[nH]c3ccc(Br)cc23)cc1	-5.6%

# Next structures follow.
structure	VDR inh
COc1cc(OC)c(C(=O)OCC(=O)Nc2cc(C)on2)cc1OC	-8.0%
CCCOc1ccc(OC(=O)c2ccc(-c3ccc(CCC)cn3)cc2)cc1	-16.5%
CC1CCC2(CC1)NC(=O)N(NC(=O)CSc1nnc(NC3CC3)s1)C2=O (centres undefined)	-13.2%
Cc1cccc(OCC(=O)NNC(=O)C2CCN(c3ncnc4sc(C)c(C)c34)CC2)c1	-12.1%
CCCCN(C)CCCNC(=O)C1CC(=O)N(Cc2ccc(OC)cc2)C1 (centres undefined)	9.7%
COc1ccccc1N(C)S(=O)(=O)c1ccc(C(=O)Nc2nnc(C)s2)cc1	8.3%
CCCS(=O)(=O)N1CCCC(C(=O)NCc2ccc3c(c2)OCO3)C1 (centres undefined)	-4.4%
Cc1ccc(C(=O)CC(=O)c2ccccc2)cc1	-23.4%
COCCNC(=O)Cn1nc(C(F)(F)F)c(Cl)c1C	12.7%
Cc1nnc2n(c1=O)C(CS(=O)(=O)c1ccc3ccccc3c1)CS2 (centres undefined)	1.3%

# (continued)
structure	VDR inh
CC/C(=N/OC(=O)c1cccc(C)c1)C(=O)c1cccs1	7.1%
COc1ccc(-c2nnc(SCC(=O)Nc3ccc(Cl)cc3)n2C)cc1	-3.1%
Cc1c(=O)n(OCc2ccccc2)c2ccccc2[n+]1[O-]	13.7%
O=c1oc2ccc3ccccc3c2cc1-c1nnc(Nc2ccccc2F)s1	-24.9%
CCCCc1c(C)c(C#N)c2[nH]c3ccccc3n2c1=O	136.4%[activator]
Cc1ccc(N/N=C(\C#N)C(=O)c2ccsc2)cc1	-7.4%
Cc1cccc(OCC(=O)NC(C)C(=O)N/N=C/c2c(OCc3ccccc3)ccc3ccccc23)c1 (centres undefined)	3.9%
O=C(NCCc1cccnc1)C1CCC(=O)N(Cc2cccc(C(F)(F)F)c2)C1 (centres undefined)	0.6%
CCOC(=O)c1c(C)n(-c2ccc(OC)cc2)c2ccc(O)c(CN(C)C)c12	-12.4%
CCOc1ccc(CCNC(=O)COC(=O)c2ccco2)cc1OCC	-5.6%

# Going on with the list:
structure	VDR inh
Cc1ccc(NS(=O)(=O)c2ccccc2Cl)c2c1CC(C)(C)O2	0.7%
COC(=O)c1c(NC(=O)c2ccc(S(=O)(=O)N3CCOCC3)cc2)sc2c1CCN(C)C2	0.2%
CN(Cc1ccccc1)C(=O)C1CCCN1S(=O)(=O)c1ccc2c(c1)n(C)c(=O)c(=O)n2C (centres undefined)	-15.1%
CC1CCN(c2c([N+](=O)[O-])c(=O)oc3ccccc23)CC1	-19.7%
O=C(O)C1C2C=CC(C2)C1C(=O)NCCc1ccccc1 (centres undefined)	-9.8%
Cc1ccccc1CSCc1ccc(C(=O)NCCc2ccccc2)o1	-4.3%
c1cncc(-c2cc(-n3ccnc3)ncn2)c1	-16.3%
CCCCCn1c(=O)[nH]c2cc(C(=O)N3CCN(c4cccc(OC)c4)CC3)ccc2c1=O	-19.2%
CCOC(=O)C1=C(CN2CCN(c3ccc(C)cc3C)CC2)NC(=O)NC1c1ccc(OC)cc1 (centres undefined)	21.4%
O=C(CSc1nnc(-c2cccs2)n1-c1cccc(Cl)c1)c1cccc2c1OCCO2	7.2%

# Continued.
structure	VDR inh
CCN(CC)CCNC(=O)C(=O)NCC(c1ccc2c(c1)OCO2)N1CCOCC1 (centres undefined)	0.5%
NC(=O)CNc1ncc(C(F)(F)F)cc1Cl	1.0%
O=C(NCCc1cccc(Cl)c1)C1CCC(=O)N(Cc2ccc(Cl)cc2)C1 (centres undefined)	-19.8%
CCOC(=O)c1ccc(N/C(=N\S(=O)(=O)c2ccc(F)cc2F)c2ccccc2)cc1	1.6%
Cc1cccc(CCNC(=O)CCS(=O)(=O)c2ccc3nc(C)sc3c2)c1	-3.8%
Cc1cc(OCC(O)CNC(C)c2ccccc2)ccc1C(C)C (centres undefined)	0.5%
CCc1nc(C(N)=O)c2[nH]c(=O)n(-c3ccc(OC)cc3OC)c2n1	-5.4%
CC(C)CC(C(=O)OCC(=O)c1c(N)n(C)c(=O)n(C)c1=O)N1C(=O)C2CC=CCC2C1=O (centres undefined)	1.9%
O=C(c1cc2cc(F)ccc2[nH]1)N1CCc2ccccc21	9.2%
CN(C)S(=O)(=O)c1cccc(NC(=O)c2cccc(S(=O)(=O)N3CCCCCC3)c2)c1	-6.1%

# Next part
structure	VDR inh
c1ccc2nc(SCc3cn4ccccc4n3)cnc2c1	-15.7%
O=C(NC1CC1)c1cc(-c2ccc(Br)cc2)nc2ccccc12	-5.5%
CC(=O)Nc1sc2c(c1C#N)CCC2	9.2%
CN(CC(=O)Nc1c(Cl)cccc1Cl)C(=O)c1ccc(-n2cncn2)c([N+](=O)[O-])c1	-4.5%
Cc1ccc(OCCN(C)C(=O)CC2C(=O)NCCN2CC(C)(C)C)cc1 (centres undefined)	5.5%
COC(=O)c1c(NC(NC(=O)C(C)(C)C)C(Cl)(Cl)Cl)sc2c1CCC2 (centres undefined)	7.0%
Cc1cc(C)c(S(N)(=O)=O)c(C)c1N(C)S(=O)(=O)c1ccccc1	-5.1%
CN(CC(=O)Nc1cccc(F)c1)C(=O)CN1C(=O)C2CC=CCC2C1=O (centres undefined)	-14.6%
Cc1c(CCO)c(=O)n(-c2ccccc2)n1S(=O)(=O)c1ccc(Cl)cc1	-7.2%
CC(=O)Nc1ccc2nc(SCC(=O)Nc3ccc(N4CCOCC4)c(Cl)c3)sc2c1	-11.6%

# (list continues)
structure	VDR inh
CC(=O)c1c(N2CCOCC2)nc(=S)n(-c2cc(C)ccc2C)c1C	-18.4%
C=CCN(CC=C)C(=O)Nc1cc(Cl)ccc1OC	-2.5%
CCO/C=C/C(O)(CNC(=O)c1ccc(C(C)(C)C)cc1)C(F)(F)F (centres undefined)	6.8%
CC(C)CCNc1ncnc2c1cnn2-c1cccc(Cl)c1	12.9%
COc1ccc(C)cc1NC(=O)c1noc2c1CSc1ccccc1-2	11.4%
O=C(NCCCCNC(=O)c1ccccc1Cl)c1ccccc1Cl	-0.8%
CCC(Sc1nc2ccccc2o1)C(=O)Nc1nnc(C)s1 (centres undefined)	-12.5%
CCN1CCN(c2cc(C)c3cc(NC(=O)/C=C/c4cccc(OC)c4OC)ccc3n2)CC1	5.9%
CCOc1cc(C2c3c(oc4ccc(F)cc4c3=O)C(=O)N2Cc2ccco2)ccc1O (centres undefined)	-4.2%
O=C1C(Cc2ccccc2)Nc2ncnc(N3CCN(c4ccccc4)CC3)c2N1Cc1ccccc1 (centres undefined)	-15.9%

# Other entries follow.
structure	VDR inh
CCn1c(=O)c2sccc2n2c(CCC(=O)N3CCN(c4ccccc4OC)CC3)nnc12	-2.4%
O=C(NC1CCCCC1)C(c1ccco1)N(Cc1cccnc1)C(=O)C1COc2ccccc2O1 (centres undefined)	-6.4%
COc1cc2c(cc1NC(=O)COC(=O)Cn1cnc3ccccc31)oc1ccccc12	0.4%
Cc1cc(Cl)c2oc(C(=O)N3CCN(C4CCS(=O)(=O)C4)CC3)c(C)c2c1 (centres undefined)	-2.5%
CNC(=O)c1cccc(-n2c(C)nc3cccnc32)c1C	6.2%
Clc1ccc(-c2csc3ncnc(NCCN4CCOCC4)c23)cc1	-18.6%
CC1CCCCN1C(=O)c1cc(-c2ccc3c(c2)OCO3)on1 (centres undefined)	18.3%
O=C(c1ccc(NS(=O)(=O)c2ccc3c(c2)OCCO3)cc1)N1CCCCC1	-11.6%
Cc1ccccc1S(=O)(=O)Cc1ccc(C(=O)NCCCOC(C)C)o1	-5.4%
CCCCC(C=O)NC(=O)C(CC(C)C)NC(=O)OCc1ccccc1 (centres undefined)	?

# (continued)
structure	VDR inh
COc1ccc(-n2c(=S)[nH]c3cc(C(=O)NCCCN4CCOCC4)ccc3c2=O)cc1OC	-16.1%
COC(=O)c1ccccc1Oc1nc(Cl)cc(OC)n1	-1.3%
Cc1cc(/C=N/NC(=O)c2cc3ccccc3o2)c(C)n1C	10.1%
COC(=O)c1c(NC(=O)COC(=O)c2ccc(Cl)cc2[N+](=O)[O-])sc2c1CCCCC2	1.4%
CCOP(=O)(OCC)C(C#N)=C1SCN(c2ccc(Cl)cc2)CS1	?
CCOC(=O)c1c(S(=O)(=O)Nc2ccc(C)c(F)c2)c(C)n(C)c1C	-8.5%
CNS(=O)(=O)c1cc(S(=O)(=O)NC)c2cccc3c2c1NC3=O	-14.2%
COc1cccc(Nc2nc(-c3sc(C)nc3C)cs2)c1	-8.1%
CN(CC(=O)Nc1ccc(F)c(F)c1F)C(=O)C1CCC1	8.0%
COc1ccc(C(=O)NCCC(=O)N2CCC3(CC2)NCCc2[nH]cnc23)cc1	?

# Other entries follow.
structure	VDR inh
COc1ccccc1CNCc1ccc(OC)c2ccccc12	-4.8%
COc1ccc(-c2nc3cc(C)ccn3c2NC(=O)c2c(F)cccc2Cl)cc1	13.2%
COC(=O)c1c(NC(=O)COc2cc(C)c(Cl)c(C)c2)sc2c1CCCC2	?
Fc1ccccc1COc1cccc2cccnc12	4.9%
O=C(CCN1C(=O)/C(=C/c2ccc(F)cc2)SC1=S)NNC(=O)c1ccncc1	8.3%
Cc1ccc(CN(Cc2ccco2)C(=S)NCC(=O)NC2CC2)cc1	-16.4%
COC(=O)C(NC(C)=O)(Nc1ccccc1)C(=O)OC	-13.7%
Cc1ccc(-c2nnc3c4ccccc4c(-c4ccccc4)nn23)cc1	-5.2%
COCCn1c(=NC(=O)CCS(=O)(=O)c2ccccc2)sc2ccccc21	4.6%
COc1ccc(S(=O)(=O)N(C)C[C@H]2Oc3c(NC(=O)CCC(F)(F)F)cccc3C(=O)N([C@H](C)CO)C[C@@H]2C)cc1	4.9%

# 4 entries already listed, sorted by the value under VDR inh, rising:
Compound	VDR inh
Clc1ccc(-c2csc3ncnc(NCCN4CCOCC4)c23)cc1	-18.6%
Cc1ccc(CN(Cc2ccco2)C(=S)NCC(=O)NC2CC2)cc1	-16.4%
O=C(NCCCCNC(=O)c1ccccc1Cl)c1ccccc1Cl	-0.8%
O=S(=O)(NC1CC1)c1ccc(Cl)cc1F	15.1%

# More compounds
structure	VDR inh
CCOc1ccccc1NC(=O)CSc1nc2c(c(=O)n(C)c(=O)n2C)n1C	-9.3%
Cc1cccc(C)c1OCC(=O)Nc1oc(-c2ccccc2)c(-c2ccccc2)c1C#N	-9.3%
CN(C)c1cccc(C(=O)Nc2nc3ccccc3[nH]2)c1	-8.9%
O=C(COC(=O)c1cc(Br)ccc1O)NNC(=O)c1ccc([N+](=O)[O-])cc1	-3.1%
COCC(=O)Nc1nc2ccccc2s1	3.2%
O=C(COC(=O)c1ccccc1-n1cnnn1)c1ccc(F)cc1	6.7%
CCOCCCNC(=O)COC(=O)/C=C/c1ccc(S(=O)(=O)N2CCc3ccccc32)cc1	6.1%
Cc1cccc(S(=O)Cc2ccc(C(=O)N3CCN(C(=O)c4ccco4)CC3)o2)c1 (centres undefined)	-7.3%
Cc1ccc(-c2nc(-c3ccccn3)sc2CC(=O)O)cc1	-0.7%

# Bioassay records from PubChem BioAssay.
